Assay outcomes deposited in PubChem BioAssay by several laboratories.
Sa RN4220 lethal: kills Staphylococcus aureus RN4220; S. aureus RN4220 growth, OD600, 16 h; inhibition, % (no concentration beside the values); 330,000 tested, 0.33% active; AID 1259311;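 active = z-score of -3 or lower and OD600 up to 0.18 on both plates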;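 note: plate controls were untreated cells for no effect and reference antibiotic for full effect; stock transfer was 100 nL into about 80 µL; one replicate is shown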
Bead autofluor: flagged as autofluorescent in microsphere protease counterscreen; compound autofluorescence counterscreen, microsphere flow cytometry; active compounds read high; fluorescence intensity (concentration not given with the values); 360,000 tested, 3.1% active;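 active = at least 3 SD above the mean of all compounds, about 16000 in these data; inconclusive = too few beads counted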;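 note: 100 nL of 1 mM stock went into each well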
Sa ugtP lethal: compounds lethal to S. aureus RN4220 ugtP deletion mutant; AID 1259309; growth inhibition, % (test concentration not listed); 330,000 tested, 0.54% active; OD600 growth, 16 h; some inactives read as strong as hits;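 active = z-score under -3 and OD600 up to 0.15 on both plates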;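 note: plate controls were untreated wells for no effect and antibiotic for full effect; wells of about 80 µL received 100 nL stock; the first replicate is given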
PrP 5UTR inh: inhibition of PrP 5' UTR reporter expression | cell-based PrP 5' UTR mRNA reporter, plate reader | inhibition, % (no concentration beside the values) | 340,000 tested, 0.35% active | AID 488862;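 active = every replicate at 50% or more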;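 note: 0 = median of the neutral control wells; tested in H4 reporter cells; numbers are from one replicate; inactives centre near -14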
BJeLR viability: BJeLR cell viability loss; BJeLR (HRASV12) viability, CellTiter-Glo ATP luminescence, 48 h; reference of the scale not given here; inhibition, % (concentration not given with the values); 300,000 tested, 0.17% active; AID 1554;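 active = replicate mean above 50%; inconclusive = above 50% but judged a plate artefact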;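 note: 50 nL library stock added to about 25 µL; numbers are from one replicate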
Mtb hypoxia rep: inhibitors of hypoxia-regulated fluorescent reporter in Mycobacterium tuberculosis; 300,000 tested, 0.1% active; M. tuberculosis hypoxia-regulated fluorescent reporter, fluorescence; AID 1159583; fluorescence inhibition, % (test concentration not listed);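 active = 35 to 45% if threefold the growth effect, above 45% if 1.5-fold the growth effect; inactive = the rest, general growth blockers included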;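 note: wells of about 50 µL received 100 nL stock; 0% = vehicle wells and 100% = reference inhibitor wells; whole bacteria with a GFP reporter of the hypoxia response; strong numbers were not always called active; many hits fall short of the cut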
Mtb hypoxia rep growth: further read-out of Mtb hypoxia rep, marked with its call; growth inhibition, %; measured here: M. tuberculosis growth (absorbance);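 0% = vehicle and 100% = reference antibiotic; read after six days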
Starred values were filed as active, the others as inactive; ? = inconclusive; nt = not tested or not shown.

The opening 4 entries (preview)
Each structure is followed by: Sa RN4220 lethal, Bead autofluor, Sa ugtP lethal, PrP 5UTR inh, BJeLR viability, Mtb hypoxia rep, Mtb hypoxia rep growth
1: CCC1(CC)NC(=O)N(CC(=O)OCC(=O)NC(=O)c2ccccc2OC)C1=O
→ 1.9, ?, 2, -15, -15, 9, -5
2: c1ccc(CCNc2nnnn2-c2ccccc2)cc1
→ -3.9, ?, 8, -16, -10, 3, 1
3: Cc1noc(C)c1CSc1nnc2ccccn12
→ 7.9, 19015*, 3, -13, -2, 15, 11
4: CC(C)(C)c1ccc(C(=O)N2CCN(CCNC(=O)C(=O)Nc3ccc(F)cc3)CC2)cc1
→ 3.6, ?, 1, -5, -3, -1, 5

Results, previewed entries included:
Each structure is followed by: Sa RN4220 lethal, Bead autofluor, Sa ugtP lethal, PrP 5UTR inh, BJeLR viability, Mtb hypoxia rep, Mtb hypoxia rep growth
1: CCC1(CC)NC(=O)N(CC(=O)OCC(=O)NC(=O)c2ccccc2OC)C1=O
→ 1.9, ?, 2, -15, -15, 9, -5
2: c1ccc(CCNc2nnnn2-c2ccccc2)cc1
→ -3.9, ?, 8, -16, -10, 3, 1
3: Cc1noc(C)c1CSc1nnc2ccccn12
→ 7.9, 19015*, 3, -13, -2, 15, 11
4: CC(C)(C)c1ccc(C(=O)N2CCN(CCNC(=O)C(=O)Nc3ccc(F)cc3)CC2)cc1
→ 3.6, ?, 1, -5, -3, -1, 5
5: CN1c2ccccc2-c2nc3ccccc3n2C1c1ccccn1 (centres undefined)
→ -2.1, 4485, 2, -12, 1, nt, nt
6: COC(=O)c1cc(CN2CCN(c3ccccc3)CC2)ccc1O
→ 4.1, 3464, 6, -20, 1, 3, -2
7: Cc1c(Br)cccc1NC(=O)c1sccc1-n1cccc1
→ 6.8, 4990, 7, -22, 18, 9, 14
8: CCOc1cccc2cc(-c3csc(NC(=O)CCC(=O)N4CCC(C)CC4)n3)c(=O)oc12
→ 6.7, 22950*, -4, -21, 0, 7, 7
9: CC(NC(=O)c1cccs1)C(=O)NC1=NCCS1 (centres undefined)
→ 2.6, 9179, 6, -28, -5, 6, 2
10: CC(Oc1ccc2c3c(c(=O)oc2c1)CCCC3)C(=O)NC1CC(C)(C)NC(C)(C)C1 (centres undefined)
→ 1.9, 6191, 0, 4, 4, 12, -6
11: Cc1ccc(-c2csc(NC(=O)c3cccc(C)c3)c2C(=O)O)cc1
→ 8.5, 3901, -17, -25, -2, -9, 4
12: COCCNC(=O)CN(C(=O)CCC(=O)Nc1nccs1)c1ccccc1OC
→ 4.1, 5128, 6, -26, -7, nt, nt
13: CCN(CC)CCN(C)Cc1nc(C(c2ccccc2)c2ccccc2)no1
→ 2.8, 3092, 10, -15, 2, -2, 2
14: Cn1cccc1/C=N/NC(=O)C(O)c1ccccc1 (centres undefined)
→ nt, 3132, nt, -37, -8, nt, nt
15: COc1ccc(NC(=O)Cn2nnc(C(=O)NCc3cccs3)c2N)cc1OC
→ 7.1, 4288, 1, -2, -6, -2, -6
16: O=C(Nc1ccccc1OC(F)F)c1ccc(Br)o1
→ -0.4, 2877, 3, -9, -4, nt, nt
17: Cn1c(=O)n(Cc2ccco2)c(=N)c2c3c(sc21)CCCC3
→ 5.4, 4888, 2, -23, -7, 3, 17
18: CCC(CC)C(=O)Nc1nnc(S(=O)(=O)N2CCCc3ccccc32)s1
→ 14, 5374, 6, -32, 0, 2, 4
19: O=C(NCc1cccc(Cl)c1)c1ccncc1
→ -4.4, 4981, -10, 1, 1, -2, 2
20: CC(C)(C)CN1C(N)=NC[C@@H]1c1ccccc1
→ nt, 4004, nt, 1, -3, nt, nt
21: Cc1cc(OCC(=O)Nn2cnnc2)ccc1Br
→ 6.3, 9027, 15, nt, 1, 11, 9
22: CCc1cc2c(=O)c(-c3ccc4c(c3)OCCO4)c(C)oc2cc1OS(C)(=O)=O
→ 3.6, 2576, 4, -23, -5, 3, 5
23: COc1ccc(N(Cc2cc3ccccc3[nH]c2=O)S(=O)(=O)c2ccccc2)cc1
→ 6.8, 3696, 6, -2, -1, 2, 18
24: N#CC1=C(N)SC(N)=C(C#N)C1c1ccnc2ccccc12
→ nt, 2195, nt, -6, 7, nt, nt
25: O=C(NN=Cc1sc(N2CCCCC2)nc1-c1cccs1)c1cccnc1
→ 14, nt, 4, nt, nt, 7, 3
26: COc1cccc(NC(=O)c2ccc3c(c2)OCO3)c1
→ 2.2, 3196, 7, -42, 10, 5, -2
27: O=C(NN=Cc1ccccc1F)c1cccc(NC(=O)c2ccccc2Cl)c1
→ 6.6, nt, 4, nt, nt, 0, 1
28: Cc1cc(C(=O)CSc2nnc(-c3ccco3)o2)c(C)n1CC1COc2ccccc2O1 (centres undefined)
→ 6.6, 3550, -15, -20, -1, 22, 11
29: COc1ccccc1C=Cc1ccnc2ccccc12
→ 7.7, 3797, -10, -21, nt, 8, 6
30: Cc1n[nH]c(=O)c2c(NC(=O)CSc3c(Cl)cccc3Cl)oc(C)c12
→ 5.6, 6561, -2, -12, 8, 6, -6

Additional compounds.
Each structure is followed by: Sa RN4220 lethal, Bead autofluor, Sa ugtP lethal, PrP 5UTR inh, BJeLR viability, Mtb hypoxia rep, Mtb hypoxia rep growth
31: O=C(CSc1nc2ncc(Cl)cc2[nH]1)c1c[nH]c2ccccc12
→ 5.5, 6604, -4, -10, 7, 8, -5
32: CCCC(C(=O)n1nc(C)cc1C)C(NS(=O)(=O)c1ccc(C)cc1)c1ccccc1 (centres undefined)
→ -7.7, 5888, -9, -17, -5, nt, nt
33: CN(C)c1ccc(S(=O)(=O)N2CCC(Cc3ccccc3)CC2)cn1
→ -4.0, 5987, 5, 9, nt, 13, 7
34: O=C(Nc1ccc2c(c1)OCCO2)c1cccc(Cl)c1Cl
→ 0.5, nt, 9, -88, 12, 6, 0
35: O=C(NCc1ccc2c(c1)OCO2)c1ccc2c(c1)OCCO2
→ 6.2, 2375, 0, -18, 1, nt, nt
36: CC[n+]1c(C)cc(C)n1-c1ccccc1
→ 1.1, 4063, 3, 5, 7, 12, -2
37: COC(=O)c1ccccc1NC(=O)c1cnc2sccn2c1=O
→ 1.3, 8500, 4, -32, 7, 15, 12
38: Cc1ccc(C)c(OCc2n[nH]c(=S)o2)c1
→ 8.1, 4470, 5, -4, -16, 4, -1
39: COc1cc(-c2nc3ccccn3c2N=Cc2cccc(F)c2)ccc1O
→ 4.1, nt, 6, nt, nt, 2, 5
40: CN(Cc1ccccc1)C(=C(Cl)Cl)C(=C1NCCN1)[N+](=O)[O-]
→ 7.4, 4764, 12, -35, -4, 3, -3
41: O=c1cc(CN2CCN(c3cccc(Cl)c3)CC2)c2cc(O)c(-c3ccccc3)cc2o1
→ 7.7, 2461, -6, -1, -4, 3, 11
42: O=S(=O)(c1ccc2ccccc2c1)N1CCN(S(=O)(=O)N2CCOCC2)CC1
→ -4.0, 3562, -8, 7, 16, nt, nt
43: COc1cccc(NC(=O)CCN2C(=O)c3ccccc3Sc3ncccc32)c1
→ 3.9, 5324, 8, -3, -6, 5, 6
44: O=C(NC(O)C(=O)c1ccccc1)c1cccs1 (centres undefined)
→ 7.5, 5869, 5, -7, 1, nt, nt
45: CCOC(=O)C1CCN(C(=O)c2ccccc2NC(=O)c2ccc(Br)cc2)CC1
→ 2.1, 2493, 2, -22, -3, 9, 6
46: CCC(C=NNC(=O)c1ccccc1F)CC
→ 2.4, nt, 8, nt, nt, 0, 4
47: Cc1ccc(Sc2c(C)[nH]n(C(C)(C)C)c2=O)cc1
→ 3.6, 14711, 6, 2, 2, 11, 14
48: Cc1ccc(NC2c3ncccc3C(=O)N2Cc2ccco2)c(C)c1 (centres undefined)
→ 2.6, 2479, 0, -4, -7, 6, 2
49: CCOC(=O)c1cc2c(=O)n3ccccc3nc2n(C(C)C)c1=NC(=O)c1c(-c2ccccc2Cl)noc1C
→ -4.5, 4242, 6, -1, -8, 7, -2
50: O=C(c1cc2nc(-c3ccc(Cl)cc3)cc(C(F)(F)F)n2n1)N1CCOCC1
→ 7.0, 2508, 31, -1, -8, 14, 9
51: CCN(CC)c1ccc(C=NNC(=O)c2cccc(S(=O)(=O)N3CCOCC3)c2)c(O)c1
→ 11, nt, 9, nt, nt, -6, -2
52: Cc1ccc2c(=O)oc(N(C)C)nc2c1
→ 5.2, 2561, 2, -10, -1, -1, 7
53: O=C(Nc1ccc(-c2nc3ccccc3[nH]2)cc1)c1c(F)c(F)c(F)c(F)c1F
→ 2.2, 2617, 3, -6, 0, -3, 3
54: CCS(=O)(=O)c1ccc2oc(Nc3cc(Cl)ccc3OC)nc2c1
→ 2.7, 5320, 4, 0, -15, 15, 9
55: CCCNC(=O)Cc1c(OC)ccc2cc(Br)ccc12
→ 1.1, 2046, 9, -3, -4, 19, 12
56: CC(C)=C1SC(N2CCN(c3ccc(C)c(Cl)c3)CC2)=NC1=O
→ 6.7, 4252, -8, -17, -25, 14, 11
57: COc1ccc(OC)c(C(=O)/C=C/c2cccnc2)c1
→ 6.2, 3459, 11, -27, 4, 19, 13
58: CC(=O)C1=C(C)NC(SCC(=O)c2ccc(F)cc2)=C(C#N)C1CC(C)C (centres undefined)
→ 3.5, 2449, 9, -2, -10, 8, 10
59: COC(=O)c1cc2n(n1)CCN(Cc1ccccc1F)C2=O
→ 2.4, 2458, 4, -11, nt, nt, nt
60: Cc1ccc(NC(=O)CCC(=O)c2cc(C)sc2C)nc1
→ 3.2, ?, 6, -25, 0, 5, 13

Continuation:
Each structure is followed by: Sa RN4220 lethal, Bead autofluor, Sa ugtP lethal, PrP 5UTR inh, BJeLR viability, Mtb hypoxia rep, Mtb hypoxia rep growth
61: COc1cccc(NC(=O)CCN2CCN(C)CC2)c1
→ 2.6, 10190, 1, -5, -7, 1, 0
62: CCNc1sc(C(=O)c2cccs2)c(N)c1-c1nc2ccccc2s1
→ 3.7, 2901, 0, -15, -1, 8, 8
63: O=C(COC(=O)CCSc1ccccc1)NCc1ccccc1
→ 1.6, 4532, 4, -25, 3, -6, 1
64: COc1ccc(Br)cc1/C=N/NC(=O)c1ccc(OC)c(OC)c1
→ nt, 3414, nt, -2, 27, nt, nt
65: O=c1c2ccccc2[nH]c(=S)n1Cc1cccnc1
→ 1.8, 8642, -7, -31, 3, 11, 15
66: Cn1cc2ccc(N)cc2n1
→ 2.9, 4595, 4, -18, nt, 9, 23
67: CCCCC(=O)NNC(=O)N1c2ccccc2Sc2ccccc21
→ 4.7, 4182, 6, -21, -7, 2, 8
68: CN(Cc1nc(-c2cccnc2)no1)S(=O)(=O)c1ccc2ccccc2c1
→ 12, 11083, 15, -19, -4, 7, -3
69: COc1cccc(C(C(=O)NCc2ccco2)N(Cc2ccco2)C(=O)Cn2nnc3ccccc32)c1 (centres undefined)
→ 3.6, 2562, -8, -23, 6, -1, 2
70: Cc1cc(C(=O)O)c(C)n1C1CC1
→ 1.3, 3435, -1, -1, -1, 19, 6
71: O=C(Nc1ccc(Br)cc1F)c1cccnc1
→ 0.6, 2648, 17, -29, -7, 5, 5
72: COc1ccccc1/C=C/C(=O)OCC(=O)c1cc(C)n(C)c1C
→ 5.3, 6161, 6, -12, nt, 8, 2
73: O=C1C(=O)N(Cc2cccnc2)C(c2cccc([N+](=O)[O-])c2)/C1=C(/O)c1ccc2c(c1)OCO2 (centres undefined)
→ -4.1, 6025, -8, -2, -10, -9, 2
74: O=C(CSc1ccc(-c2ccco2)nn1)c1ccccc1
→ 10, 8345, -14, -30, -5, -1, 6
75: O=C(NCc1nc(-c2ccccc2)no1)Nc1ccc(F)cc1
→ -9.3, 1934, -10, -14, -3, 1, 2
76: O=C(O)c1ccccc1Nc1ccc([N+](=O)[O-])cc1C(=O)O
→ nt, 3523, nt, -28, 1, nt, nt
77: O=C(Nc1nc(-c2cccs2)cs1)c1ccc(Cl)s1
→ 61, 3970, 94*, -17, 3, nt, nt
78: O=C(Nc1ccc(Br)cc1)c1ccc2c(c1)OCO2
→ 4.8, 3282, 5, -72, 4, 2, 2
